# KCNQ2 enhance – potentiators of rat KCNQ2 potassium channel. CHO-K1 KCNQ2, FluxOR thallium flux fluorescence; active compounds read high. B-score at 10 µM. actives 0.54% (n = 310,000). AID 2239, 2010;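 active means fluorescence ratio B-score at least 3 SD of library B-scores, with initial fluorescence B-score within 3 SD, cut at about 5.3 in these data; same plate scores as AID 2156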;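 further: B-score of peak minus minimum over baseline fluorescence ratio after K+ and Tl+ stimulus; positive B-score means potentiation of KCNQ2 with more thallium influx and brighter signal; only the inactives scoring about 0 or higher are listed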
# Target sequence (O88943 whole entry, looked up): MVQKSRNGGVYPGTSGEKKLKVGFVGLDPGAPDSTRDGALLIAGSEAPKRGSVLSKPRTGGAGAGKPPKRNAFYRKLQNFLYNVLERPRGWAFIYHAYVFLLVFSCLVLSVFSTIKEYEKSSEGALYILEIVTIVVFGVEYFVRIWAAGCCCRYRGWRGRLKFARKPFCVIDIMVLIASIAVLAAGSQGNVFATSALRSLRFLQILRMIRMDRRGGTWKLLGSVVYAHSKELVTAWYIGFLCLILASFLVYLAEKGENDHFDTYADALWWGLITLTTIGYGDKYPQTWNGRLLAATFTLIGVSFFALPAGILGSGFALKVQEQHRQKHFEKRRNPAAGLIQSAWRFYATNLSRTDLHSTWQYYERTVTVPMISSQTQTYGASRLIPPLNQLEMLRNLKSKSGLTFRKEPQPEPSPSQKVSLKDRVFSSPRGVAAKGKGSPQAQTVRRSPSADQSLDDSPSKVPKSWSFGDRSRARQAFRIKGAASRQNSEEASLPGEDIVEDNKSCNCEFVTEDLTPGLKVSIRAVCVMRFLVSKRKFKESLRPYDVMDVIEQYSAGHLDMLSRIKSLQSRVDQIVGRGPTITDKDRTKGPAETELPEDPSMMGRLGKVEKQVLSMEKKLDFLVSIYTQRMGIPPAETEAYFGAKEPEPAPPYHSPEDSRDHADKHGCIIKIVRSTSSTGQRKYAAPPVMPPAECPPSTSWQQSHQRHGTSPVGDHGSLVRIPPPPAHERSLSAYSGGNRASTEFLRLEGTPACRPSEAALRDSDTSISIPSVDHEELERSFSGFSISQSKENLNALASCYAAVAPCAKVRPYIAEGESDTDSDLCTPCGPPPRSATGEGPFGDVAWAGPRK
# KCNQ2 enhance baseline – second read-out of KCNQ2 enhance, no call of its own (marks repeat the call); B-score; compound at 10 µM; measured here: initial fluorescence intensity artifact check;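 brightness before thallium and not channel activity; 0 = typical well and far values either way flag optical interference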
# An asterisk follows results filed as active. These rows are one share of the data; the hit share may differ from the screen's.
KCNQ2 enhance,KCNQ2 enhance baseline,SMILES
0.41,1.21,CC1CN(Cc2nc3c(c(=O)[nH]c(=O)n3C)n2CC(N)=O)CC(C)O1 (stereo not given)
0.18,-0.06,CC(=O)NNC(=O)c1sc(=S)n2c1[nH]c(=O)c1sccc12
0.07,-0.97,O=[N+]([O-])c1ccc(O)c(/C=N/Nc2ccccc2[N+](=O)[O-])c1
0.92,-1.15,COc1ccc(C/C(C)=N/NC(=S)Nc2ccccc2F)cc1
0.88,0.96,Cc1cc(C)c2c(NC(=O)C3CC3)nn(C)c2n1
0.63,2.36,CCOc1ccc(-n2c(C)nc3c(cnn3-c3ccc(Cl)cc3)c2=O)cc1
0.76,1.8,O=C(NNS(=O)(=O)c1ccccc1)c1cnn(-c2ccc(Cl)cc2)c1C(F)(F)F
1.02,1.6,Cn1c(=O)oc2cc(S(=O)(=O)Nc3ccc(Cl)cc3)ccc21
0.73,0.84,Cc1cccc(N2CCN(C(=O)c3ccc(CNc4c(N5CCC(C)CC5)c(=O)c4=O)cc3)CC2C)c1 (stereo not given)
0.51,0.87,CCOC(=O)c1nc(N)c(=O)n(-c2ccccc2)n1
0.85,0.53,O=C(Nc1ccncc1)c1cc2ccccc2cc1O
0.19,1.32,Cc1ccc2nc(-c3ccccc3)oc(=O)c2c1
0.06,1.3,CC(=O)N1CCN(S(=O)(=O)c2c(C)n(C)c(=O)n(C)c2=O)CC1
0.01,0.03,Cc1onc(-c2c(F)cccc2Cl)c1C(=O)OCC(=O)c1c(N)n(C)c(=O)n(C)c1=O
0.16,-0.75,Cn1c(=NC(=O)CS(=O)(=O)c2ccc(F)cc2)sc2ccccc21
0.62,-0.74,Oc1ccc(CN2CCCc3ccccc32)c2cccnc12

# Whole records as entered above:
# Profile of `CC1CN(Cc2nc3c(c(=O)[nH]c(=O)n3C)n2CC(N)=O)CC(C)O1` (stereo not given) → KCNQ2 enhance: 0.41; KCNQ2 enhance baseline: 1.21
# Profile of `Cc1cc(C)c2c(NC(=O)C3CC3)nn(C)c2n1` → KCNQ2 enhance: 0.88; KCNQ2 enhance baseline: 0.96

# (list continues)
KCNQ2 enhance,KCNQ2 enhance baseline,SMILES
1.5,-0.05,Cc1ccc(-n2c(SCC(=O)NCCN3C(=O)CSC3=O)nnc2-c2cccc(C)c2)cc1
2.54,-0.14,CCc1nn2c(=O)cc(CSCC(=O)Nc3ccccc3Cl)nc2s1
0.2,0.24,O=C(Cn1c(C(F)(F)F)nc2ccccc21)c1ccc(Br)cc1
10.1*,-0.7*,Cc1ccc(C(=O)NNc2cc(N3CCCC3)nc(N3CCCC3)n2)cc1
0.06,-0.83,CC(C)Oc1ccc(/C(O)=C2/C(=O)C(=O)N(CCN(C)C)C2c2cccs2)cc1 (stereo not given)
1.21,-0.66,CC(=O)N1N=C(c2ccc(C)c([N+](=O)[O-])c2)OC1(C)C
1.03,0.68,Cc1ccc(CNC(=O)C2CCCN(C(=O)N(C)C)C2)cc1 (stereo not given)
2.55,-0.85,Cc1ccc(-c2ccc(CCC(=O)O)n2CC2CCCO2)cc1 (stereo not given)
0.69,-0.79,C#CC(CC)(CC)NC(=S)Nc1ccc(S(N)(=O)=O)cc1
0.04,-0.18,COc1cc(NC(=O)CSc2nnc3n2C(C)(C)Cc2ccccc2-3)cc(OC)c1
1.29,-0.63,CCOc1cc(S(=O)(=O)NC2CCCC2)ccc1Cl
2.14,-1.03,COc1ccc(NC(=O)Nc2ccc3nccnc3c2)cc1
3.18,-1.82,O=C(c1ccco1)N(Cc1cccs1)C1CCS(=O)(=O)C1 (stereo not given)
1.02,-0.19,Cc1ccc(-c2nc3[nH]c(=O)cc(NC(=O)C(C)C)n3n2)cc1
1.45,-1.94,O=S1(=O)NC(=NC2CCCCCC2)c2ccccc21
0.02,0,CN(Cc1ccc(Cl)cc1Cl)C(=O)c1cc(=O)c2ccccc2o1
0.16,-0.53,Cc1ccc(/C=C/C(=O)N2CCc3ccccc3C2)cc1
0.58,-0.98,CCOC(=O)C1C(c2ccc3c(c2)OCO3)NC(=O)NC1(O)C(F)(F)F (stereo not given)
0.08,-0.28,O=C(NCc1ccc2c(c1)OCO2)C1Cc2ccccc2CN1C(=O)c1ccco1 (stereo not given)
1.35,-1.5,CC1Cc2nc(SCC(=O)NCc3ccco3)n(Cc3ccccc3)c(=O)c2S1 (stereo not given)
3.74,-1.03,CN(CC(=O)Nc1ccc(S(=O)(=O)N2CCCC2)cc1)Cc1ccc(Cl)cc1
0.04,-0.29,CCn1nc2cc(C(=O)NCCc3cccs3)ccc2c1OC
1.47,-0.06,CCOC(=O)c1c(C)n(C)c2ccc(OC)c(NC(=O)CN3CCCCC3)c12
1.55,0.02,CCCCC(=O)Nc1nnc(CCOC)s1
0.28,0.25,CCCN1C(=O)/C(=C2\SC(=S)N(c3c(C)n(C)n(-c4ccccc4)c3=O)C2=O)c2ccccc21
0.02,-0.28,CC(=O)Cn1c(=O)oc2ccccc21
5.5*,0*,O=C(Cc1cccc(F)c1)Nc1ccc2c(c1)CCC2
0.82,-0.01,CCOC(=O)c1ccc(NC(=O)NCc2ccc(OC)cc2)cc1
2.59,-2.08,COc1ccc(-c2cn3cccnc3n2)cc1NC(=O)CC(C)C
0.57,0.73,Cc1cc(N)n(Cc2cccs2)n1
0.1,0.09,CC1CN(C(=O)c2ccc(Oc3ccccc3)cc2)CC(C)O1 (stereo not given)
1.04,-0.42,Cc1cccc(CSc2cccc3cccnc23)c1
0.02,0.2,Cc1nc2cccc(C(=O)NC3CCCCC3)c2o1
0.03,-1.96,COC(=O)c1ccc(-n2cncn2)c(F)c1
0.02,-1.17,O=C(Cn1cnc2ccccc2c1=O)c1ccccc1
0.04,0,CC(C)C[C@@H](NC(=O)[C@H]1CCCN1C(=O)Cc1ccccc1)C(N)=O
0.25,-0.01,Cc1ccc(N2C(=O)C(Cl)=C(N3CCOCC3)C2=O)cc1Cl
0.04,1.27,CC(=O)NC(=O)COC(=O)c1ccc2ncsc2c1
0.05,-0.97,COCCNC(=O)C1Nc2ccc(OC(F)(F)F)cc2C2C=CCC12 (stereo not given)
1.82,0.75,CS(=O)(=O)Nc1ccc2c(c1)C(=O)OC2
0.48,1.41,c1cncc(-c2ccnc3ncnn23)c1
1.28,-2.45,COc1cccc(-c2noc(-c3cccs3)n2)c1
0.04,1.45,O=C1NC(=S)N/C1=C\c1ccc(N2CCOCC2)cc1
0.07,-1.57,O=C(Cn1cnc2cc(Cl)ccc2c1=O)Nc1ccc2c(c1)OCO2
0.78,0.68,CCOc1ccc(Cl)cc1/C=N/NC(=O)CNC(=O)c1ccccc1
1.28,-0.1,Cc1ccc(C)c(Cn2nnc3c(=O)[nH]c(C(=O)NCc4ccco4)nc32)c1
0.22,0.05,CN(CCC#N)C(=O)COc1ccc(Br)cc1Cl
1.26,-1.16,Cc1cnc(NC(=O)c2cc3c(C)nn(Cc4ccccc4Cl)c3s2)s1
0.26,-0.84,Cc1cc(C)nc(NS(=O)(=O)c2ccc(N)cc2)n1
1.63,-0.99,COC(=O)C(C)n1cnc2c(nnn2-c2cccc(OC)c2)c1=O (stereo not given)
0.9,-0.02,O=S(=O)(Cc1ccccc1)N1CCN(Cc2ccc(Br)cc2)CC1
1.02,0.66,COCCCn1c(SCC(N)=O)nnc1-c1ccccc1
2.13,-0.76,Cc1ccccc1C(=O)NC(=S)Nc1ccc(S(=O)(=O)N2CCN(C)CC2)cc1
1.44,-0.48,COc1cccc(/C=N\NC(=O)C2C(=O)NCC2c2ccccc2)c1O (stereo not given)
0.89,-2.24,Cn1c(=O)c2c(nc(N3CCOCC3)n2CCSc2ncccn2)n(C)c1=O
2.41,-0.65,CCN(CC)c1ccc(NC(=O)c2ccc3c(c2)OCO3)cc1

# Following part
KCNQ2 enhance,KCNQ2 enhance baseline,SMILES
2.07,1.75,COc1ccc(C2(C)NC(=O)N(CC(=O)NCc3ccccc3F)C2=O)cc1 (stereo not given)
1.28,0.8,CCCC(=O)N=C1SC2CS(=O)(=O)CC2N1c1ccc(-c2nc3ccc(C)cc3s2)cc1 (stereo not given)
1.18,1.34,COc1ccc(C(=O)NCC(C)C)c(OC)c1
0.34,2.32,Cc1ccc(CC(CC(=O)O)C(=O)NCC23CC4CC(CC(C4)C2)C3)cc1 (stereo not given)
0.54,-0.07,COCc1cc(=O)[nH]c(-c2ccccc2)n1
1.13,0.27,COc1ccccc1-n1cnnc1SCC(=O)NC1CCS(=O)(=O)C1 (stereo not given)
1.11,-0.29,CCOC(=O)C1CCN(c2cc3c(cc2NC(=O)c2ccc(OC)c(OC)c2)n(C)c(=O)n3C)CC1
0.74,2.29,Cc1cccc2cc(CN(Cc3ccccc3)C(=O)N(C)C)c(=O)[nH]c12
1.96,0.01,O=C(CSc1nnc2ccccn12)N1CCc2ccccc21
0.2,0.69,COc1cc(N2CCCC2)c(OC)cc1/C=C1/NC(=S)NC1=O
0.39,0.06,O=C(Oc1ccccc1)c1cccc(COC(=O)c2cnccn2)c1
0.05,-1.03,Cc1cccc(NC(=O)CN2C(=O)N/C(=C\c3ccccc3OCc3ccc(C(=O)O)cc3)C2=O)c1
0.07,0.63,CCCCCc1cc(=O)[nH]c(=S)[nH]1
0.51,-0.82,CCOc1cc(-c2c(C#N)c(N)nc3c2CCCC3C)ccc1O (stereo not given)
0.89,-0.4,O=C(c1ccc(Cl)cc1)c1coc2ccc(O)cc12
1.04,-0.45,CC(C)OC(=O)C1=C(N)N2C(=O)CSC2=C(C(=O)OC(C)C)C1
1.02,0.19,CCN(Cc1ccncc1)C(=O)c1ccccc1NS(=O)(=O)c1ccc(Br)cc1
0.9,-1.17,CC(C)CN(C(=O)COc1ccc(C(C)(C)C)cc1)C1CCS(=O)(=O)C1 (stereo not given)
0.02,0.17,COC(=O)/C=C1\S/C(=N/N=C/c2ccccc2)NC1=O
1.11,-0.08,CCOC(=O)N1CCN(C(=O)Nc2ccc(Cl)cc2)CC1
0.67,-0.64,CCC(CC)C(=O)Nc1ccc(S(=O)(=O)Nc2nccs2)cc1
0.68,0.69,Nc1nc(N)c2cc(Sc3ccc4ccccc4c3)ccc2n1
0.84,1.4,O=C(Nc1cccc(-c2csc(Nc3cccc(C(F)(F)F)c3)n2)c1)c1cc([N+](=O)[O-])cc(C(F)(F)F)c1
1.71,0.3,CC(C)(C)c1cc(NC(=O)Nc2ccccc2)no1
1.29,0.83,C=CCNC(=O)C1CC(=O)N(c2ccc(OCC(=O)Nc3ccc(Cl)c(C(F)(F)F)c3)cc2)C1 (stereo not given)
0.01,-0.28,CCN1C(=O)[C@H]2[C@@H](c3ccc(-c4ccc(F)cc4)c(OC)c3)N[C@@](C)(C(=O)OC)[C@H]2C1=O
1.21,0.21,COc1ccc(N(CC(=O)Nc2ccc(S(=O)(=O)N3CCCC3)cc2)S(C)(=O)=O)cc1OC
0.88,-0.27,CCOc1cc(C2C3=C(CCCC3=O)N(CCC(=O)O)C3=C2C(=O)CCC3)ccc1OS(=O)(=O)c1ccc(C)cc1
0.76,-0.94,CCn1c2ccccc2c2cc(NC(=O)CC(C)=O)ccc21
0.02,-0.45,COC(=O)c1cc(NC(=O)CSC2=NCCS2)cc(C(=O)OC)c1
0.81,0.87,COc1ccc(NC(=O)CC(Cc2ccccc2)C(=O)O)cc1 (stereo not given)
0.01,0.03,CCCCC(CC)C(=O)Nc1ccc(S(=O)(=O)Nc2nccs2)cc1 (stereo not given)
0.96,-0.17,CCC(=O)N1CCc2cc(S(=O)(=O)CCC(=O)NC3CCCCC3)ccc21
0.52,-1.24,Cc1ccc(C2CC(C(F)F)n3ncc(C(=O)Nc4cnn(Cc5ccccc5C)c4)c3N2)cc1 (stereo not given)
1.04,0.23,COc1ccc(OCCOC(=O)CN2C(=O)NC3(CCCC3)C2=O)cc1
0.87,0.93,CC(=O)Nc1ccc(Nc2cc(N(C)C)c3nonc3c2[N+](=O)[O-])cc1
0.34,-1.3,CC(Sc1nnc(-c2ccccc2)c(-c2ccccc2)n1)C(=O)N1CCc2ccccc21 (stereo not given)
0.37,1,Cc1cc(-c2ccccc2)c2ccc(NC(=O)C(C)(C)C)nc2n1
1.65,-1.33,CCCc1ccc2oc(C(=O)N3CCN(CC(=O)NC(C)C)CC3)c(C)c2c1
0.12,-0.04,Clc1ccccc1CN1CCN(/N=C/C=C\c2ccco2)CC1
1.34,-0.4,COc1cccc(NC(=O)CSc2ccc3nnc(-c4ccncc4)n3n2)c1
1.14,-1.24,CC(=O)c1cccc(NC(=O)c2onc(C)c2Cl)c1
0.03,0.55,O=c1c2c3n(c(=O)nc2[nH]n1-c1ccccc1)CCCCC3
0.74,-1.17,COc1ccc(NC(=O)CC2SC(=Nc3ccccc3)NC2=O)cc1 (stereo not given)
0.3,-0.52,Cc1nn(C)cc1C(=O)NNC(=S)Nc1ccccc1
0.91,0,O=C(/C=C/Nc1ccc(S(=O)(=O)Nc2ncccn2)cc1)c1ccc(Cl)c(Cl)c1

# A portion taken from the entries so far, as a working copy:
KCNQ2 enhance,KCNQ2 enhance baseline,SMILES
0.12,-0.04,Clc1ccccc1CN1CCN(/N=C/C=C\c2ccco2)CC1
1.34,-0.4,COc1cccc(NC(=O)CSc2ccc3nnc(-c4ccncc4)n3n2)c1
1.14,-1.24,CC(=O)c1cccc(NC(=O)c2onc(C)c2Cl)c1
0.03,0.55,O=c1c2c3n(c(=O)nc2[nH]n1-c1ccccc1)CCCCC3
0.74,-1.17,COc1ccc(NC(=O)CC2SC(=Nc3ccccc3)NC2=O)cc1 (stereo not given)
0.3,-0.52,Cc1nn(C)cc1C(=O)NNC(=S)Nc1ccccc1
0.91,0,O=C(/C=C/Nc1ccc(S(=O)(=O)Nc2ncccn2)cc1)c1ccc(Cl)c(Cl)c1
